KCNQ2 block – KCNQ2 potassium channel inhibitors, primary screen, cell-based, CHO-K1, FluxOR thallium flux, B-score (AID 2156); Potassium voltage-gated channel subfamily KQT member 2 (Rattus norvegicus), O88943; 20 min; active compounds read low; only compounds with negative scores are shown here; some inactives read as strong as hits; hit rate 1.1% among 310,000; B-score at 10 µM;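 active = fluorescence ratio B-score at most minus 3 library SDs, with starting brightness B-score within 2 library SDs, cut at about -5.5 in these data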
Target sequence (O88943 whole entry, looked up): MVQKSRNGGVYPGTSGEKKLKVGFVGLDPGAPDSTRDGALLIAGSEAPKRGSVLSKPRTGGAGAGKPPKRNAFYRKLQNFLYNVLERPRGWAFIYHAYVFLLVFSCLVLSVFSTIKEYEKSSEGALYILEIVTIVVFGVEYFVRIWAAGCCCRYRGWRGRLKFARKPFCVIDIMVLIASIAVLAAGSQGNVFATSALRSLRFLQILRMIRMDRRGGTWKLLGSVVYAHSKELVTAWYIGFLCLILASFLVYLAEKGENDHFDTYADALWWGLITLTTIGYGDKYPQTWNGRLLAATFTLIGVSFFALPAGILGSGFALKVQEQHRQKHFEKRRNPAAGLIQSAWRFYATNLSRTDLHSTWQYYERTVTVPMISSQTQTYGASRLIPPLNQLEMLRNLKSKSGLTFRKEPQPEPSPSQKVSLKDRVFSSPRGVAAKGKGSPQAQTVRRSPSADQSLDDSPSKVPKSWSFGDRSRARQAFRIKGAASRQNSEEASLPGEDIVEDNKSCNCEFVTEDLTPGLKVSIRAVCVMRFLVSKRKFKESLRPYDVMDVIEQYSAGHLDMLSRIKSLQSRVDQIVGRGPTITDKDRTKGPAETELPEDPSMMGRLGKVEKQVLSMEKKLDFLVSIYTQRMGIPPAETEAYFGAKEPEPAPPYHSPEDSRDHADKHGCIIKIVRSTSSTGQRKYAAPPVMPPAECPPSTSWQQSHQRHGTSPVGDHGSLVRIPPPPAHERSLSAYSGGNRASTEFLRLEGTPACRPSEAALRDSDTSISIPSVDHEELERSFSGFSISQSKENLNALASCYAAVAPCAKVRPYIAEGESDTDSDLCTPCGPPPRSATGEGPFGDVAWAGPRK
KCNQ2 block baseline – also measured in KCNQ2 block; calls as there; B-score; measured here: initial fluorescence intensity artifact check;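 brightness before thallium and not channel activity; 0 = typical well and far values either way flag optical interference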
An asterisk follows results filed as active; i = inactive.

cpd	Compound	KCNQ2 block	KCNQ2 block baseline
1	O=C(NCc1ccccc1)N[C@@H](Cc1ccccc1)C(=O)O	i	1.2
2	CCc1cc(=O)oc2cc(OC(C)C(=O)NCCCn3ccnc3)ccc12 (stereo not given)	i	-0.05
3	S=C(c1ccccc1)N(c1ccccc1)c1ccccc1	i	0.65
4	CCn1cnc2cc(NCc3ccc(Cl)cc3)ccc21	i	1.9
5	O=C(N/N=C/c1ccco1)C1CC(=O)N(c2ccccc2)C1 (stereo not given)	i	0.73
6	Cc1ccc(S(=O)(=O)CC(=O)NC(C)(C)C)cc1	i	-1.9
7	Cc1nn(Cc2ccccc2)c(Cl)c1/C=C/C(=O)OCC(=O)N1CCCC1=O	i	-1.1
8	Cc1nn(-c2ccccc2)c(C)c1C(=O)Oc1ccccc1	i	1.3
9	CCn1c(C)nc2cc(C(=O)N/N=C(\C)c3ccccc3O)ccc21	i	0.05
10	COc1ccc(-n2nc(C(=O)NCC(=O)N3CCN(Cc4ccc5c(c4)OCO5)CC3)c3ccccc3c2=O)cc1OC	i	1.4
11	CC1(C)Cc2c(ccc3ccccc23)/C(=C/C(=O)N2CCCCC2)N1	i	-0.01
12	CCOc1cc(CNC2CCCC2)ccc1OCc1ccccc1Cl	i	-1.1
13	Nc1n[nH]c(S(=O)(=O)CCCc2ccccc2)n1	i	1.2
14	CCOC(=O)C(CC)Sc1ccc2nnc(-c3cccnc3)n2n1 (stereo not given)	i	0.96
15	COc1ccc(CNC(=O)Cn2ccc([N+](=O)[O-])n2)cc1OC	i	-0.98
16	O=C(CCN1C(=O)/C(=C\c2ccccc2Cl)SC1=S)N1CCN(c2ccccc2)CC1	i	-2.2
17	COc1ccc(S(=O)(=O)N2CN(CCc3ccc(OC)c(OC)c3)c3nc4ccccc4nc32)cc1	i	0.06
18	NNc1ncnc2c1cnn2-c1ccccc1	i	-0.5
19	CC(=O)c1c(C)n(CCO)c2ccc(O)cc12	i	-0.19
20	c1coc(CNc2nc3ccccc3n2CCN2CCOCC2)c1	i	3.9
21	Oc1ccc(O)c2c1C1c3ccccc3C2c2ccccc21	i	0.8
22	Cc1ccc(NC(=O)CO/N=C(\N)c2nonc2N)cc1C	i	-0.55
23	Cc1cc2nc(C3CCN(Cc4nnnn4Cc4ccccc4)CC3)[nH]c2cc1C	i	0.6
24	O=C(NCC1CCN(C(=O)c2c(F)c(F)c(F)c(F)c2F)CC1)c1c(F)c(F)c(F)c(F)c1F	i	-0.38
25	CCCCNC(=O)C1CC(c2cccc([N+](=O)[O-])c2)=NO1 (stereo not given)	i	-0.04
26	CCOCCCn1c(C)nc2c[n+](CC(=O)c3ccc4ccccc4c3)cc(Br)c21	i	-0.46
27	CCOC(=O)C1CCCN(CC(=O)Nc2c(C(=O)OC)[nH]c3ccccc23)C1 (stereo not given)	i	1.7
28	C=CCn1c(SCC(O)Cn2c3ccccc3c3ccccc32)nnc1-c1ccco1 (stereo not given)	i	-1.2
29	CCCCNC(=O)c1nnn(-c2ccccc2)c1N	i	0.68
30	Cc1ccc2c(c1)oc(=O)n2CC(=O)c1ccccc1	i	-0.3
31	CN=Cc1nc(-c2ccccc2)oc1O	i	-0.02
32	Cc1cc(C(=O)N/N=C/c2cccs2)n[nH]1	i	0.09
33	O=S1(=O)CC(N2CCOCC2)c2ccccc21 (stereo not given)	i	0.04
34	O=[N+]([O-])c1ccc(Cl)c(C2Nc3cccc4cccc(c34)N2)c1	i	-0.32
35	O=C(O)c1cc(-c2ccc(Cl)cc2)n(-c2ccc(Cl)cc2)n1	i	-0.04
36	CCS(=O)(=O)c1nc(S(=O)(=O)c2ccc(C)cc2)c(N2CCCC(C)C2)s1 (stereo not given)	i	-1
37	Cn1ccnc1SCC(=O)Nc1ccc2c(c1)OCO2	i	-0.09
38	COc1ccc(S(=O)(=O)N2CCOCC2)cc1C(C)C	i	2
39	Cc1cccc(-n2ncc3c(NCc4ccccc4)ncnc32)c1	i	1.1
40	Oc1ccc(/C=N/n2c(C3CCCCC3)n[nH]c2=S)c(O)c1	i	-0.56
41	CCN(CC)S(=O)(=O)c1ccc(N/N=C/c2cccnc2)nc1	i	0.02
42	O=C(Nc1ccncc1)c1ccc(Cl)c([N+](=O)[O-])c1	i	-0.72
43	CCCOc1ccc(/C(O)=C2/C(=O)C(=O)N(CCCn3ccnc3)C2c2ccco2)cc1 (stereo not given)	i	-0.51
44	Cc1noc(NS(=O)(=O)c2ccc(NC(=O)C34CC5CC(C3)CC(n3cnc(Br)n3)(C5)C4)cc2)c1C	i	1.3
45	Cc1ccc(C)c(N/C=C(\C#N)c2nc3ccccc3o2)c1	i	0.87
46	CN1CCN(CCCCOc2cccc3ccccc23)CC1	i	-1.4
47	CC12CC(NC(=O)N1c1cccc(C(=O)NCc3ccc4c(c3)OCO4)c1)c1cc(Cl)ccc1O2 (stereo not given)	i	-0.19
48	CCn1cc(CNC(=O)CC2C(=O)NCCN2CC(c2ccccc2)c2ccccc2)cn1 (stereo not given)	i	0.61
49	O=C1c2ccsc2SCCN1Cc1cccc(F)c1	i	2.6
50	COc1ccc(OC)c(C(=O)CSc2nnnn2C)c1	i	-0.61

Further records follow:
cpd	Compound	KCNQ2 block	KCNQ2 block baseline
51	CCN1C(=O)[C@H]2[C@@H](c3ccc(-c4ccc(OC)cc4)cc3)N3CCC[C@@]3(C(=O)OC)[C@H]2C1=O	i	0.57
52	CCS(=O)(=O)NCCc1cc2ccc(C)cc2[nH]c1=O	i	-1
53	O=C(N/N=C/c1ccc([N+](=O)[O-])o1)c1cc(-c2ccc(-c3ccccc3)cc2)nc2ccccc12	i	-0.06
54	N#C/C(=C\c1c(Cl)cccc1Cl)c1nc2ccccc2[nH]1	i	0.43
55	O=C(CCC(=O)Nc1cccc(Cl)c1)N/N=C/c1cc([N+](=O)[O-])ccc1O	i	-0.87
56	CCc1ccc2oc(=O)cc(CN3CCCCC3C)c2c1 (stereo not given)	i	-0.74
57	CNC(=S)N1CCc2sccc2C1C (stereo not given)	i	-1.5
58	Cc1cccc(-c2nnnn2-c2cccc(C)c2)c1	i	0.22
59	CCOc1ccc(/C=N/Nc2nc(C)cs2)c(O)c1	i	0.57
60	CN(c1ccccc1C(=O)Nc1ccc(F)c(Cl)c1)S(C)(=O)=O	i	-0.26
61	CCOC(=O)C1=C(C)N(C)C(C)=C(C(=O)OCC)C1c1ccncc1	i	-1.1
62	Oc1c(C=Nc2cccc3cccnc23)sc2ccccc12	i	-0.17
63	Cn1c(COc2ccccc2)nnc1SCc1nc2ccccc2[nH]1	i	0.94
64	Cc1cccc(C)c1NC(=O)CN(C)C(=O)c1cccc(S(=O)(=O)N2CCN(C)CC2)c1	i	0.24
65	Cc1csc(NC(C)c2nc3cc(Cl)c(Cl)cc3n2CCCO)n1 (stereo not given)	i	0.43
66	O=C(c1ccc(-c2cccc(Cl)c2)o1)N1CCN(c2ccc([N+](=O)[O-])cc2)CC1	i	2
67	Fc1ccccc1Cc1noc(CN2CCN(C/C=C/c3ccccc3)CC2)n1	i	-0.38
68	COc1ccc(Cl)cc1NC(=S)NCCc1c[nH]c2ccccc12	i	1.3
69	CCN(C(=O)c1cc(Cl)ccc1OC)C1CCCCC1	i	3.1
70	O=C(COc1coc(CN2CCN(c3ccccc3)CC2)cc1=O)NC1CCCC1	i	-0.64

In the list so far, these have a furan ring, fused or not.
cpd	Compound	KCNQ2 block	KCNQ2 block baseline
5	O=C(N/N=C/c1ccco1)C1CC(=O)N(c2ccccc2)C1 (stereo not given)	i	0.73
20	c1coc(CNc2nc3ccccc3n2CCN2CCOCC2)c1	i	3.9
28	C=CCn1c(SCC(O)Cn2c3ccccc3c3ccccc32)nnc1-c1ccco1 (stereo not given)	i	-1.2
43	CCCOc1ccc(/C(O)=C2/C(=O)C(=O)N(CCCn3ccnc3)C2c2ccco2)cc1 (stereo not given)	i	-0.51
53	O=C(N/N=C/c1ccc([N+](=O)[O-])o1)c1cc(-c2ccc(-c3ccccc3)cc2)nc2ccccc12	i	-0.06
66	O=C(c1ccc(-c2cccc(Cl)c2)o1)N1CCN(c2ccc([N+](=O)[O-])cc2)CC1	i	2

Part of the list above, reformatted:
[67] Fc1ccccc1Cc1noc(CN2CCN(C/C=C/c3ccccc3)CC2)n1
[68] COc1ccc(Cl)cc1NC(=S)NCCc1c[nH]c2ccccc12

assay / compound	67	68
KCNQ2 block	i	i
KCNQ2 block baseline	-0.38	1.3

(next part)
cpd	Compound	KCNQ2 block	KCNQ2 block baseline
71	CC(C)(C)OCC(NC(=O)C(CC(N)=O)NC(=O)OC(C)(C)C)C(=O)OC(C)(C)C (stereo not given)	i	1.5
72	CCOc1ccc(NC(=O)Nc2ccccc2SC)cc1	i	0.05
73	CCc1[nH]nc2c1C(c1ccc(C)o1)C(C#N)=C(N)O2 (stereo not given)	i	3.4
74	COc1ccc(NC(=O)c2nnn(CC(=O)Nc3ccc4c(c3)OCO4)c2N)cc1OC	i	-0.51
75	O=C(Nc1nccs1)Oc1ccccc1	i	0.1
76	COc1cc(S(=O)(=O)N2CCN(c3ccc(F)cc3)CC2)ccc1Cl	i	-1.2
77	CC(NC(=O)C1CCCC1)C1CC2CCC1C2 (stereo not given)	i	2.6
78	CC(C)Sc1nnc(NC(=O)CCc2ccccc2)s1	i	0.25
79	CCCCOc1ccc(C(=O)N2CCC(C)CC2)cc1	i	0.05
80	CN(CC(=O)N1CCCCCC1)S(=O)(=O)c1ccc(Br)cc1	i	-1.8
81	CCN1CCN(CC(O)COc2cccc(OC)c2)CC1 (stereo not given)	i	-0.06
82	NC(=S)N/N=C/c1ccc2ccccc2c1	i	-0.02
83	Fc1ccc(-c2csc(N3CCC(c4ccccc4)C3)n2)cc1 (stereo not given)	-9.5*	1.6*
84	O=C(Nc1ccc(O)cc1)c1ccc(NC(=O)c2ccco2)cc1	i	-1.6
85	Cc1oc(-c2cccs2)nc1CN1CCC(C(=O)N2CCCC2)CC1	i	2.6
86	COc1cc2c(cc1OC)n(CC(=O)NC1CCCCCC1)n1c(C)cc(=O)nc21	i	1.4
87	CCO[C@@H]1OC(C(=O)N2CCOCC2)=C[C@H](c2ccc(C(F)(F)F)cc2)[C@H]1CCCO	i	-0.19
88	Cc1cc(C)c2c(N)c(C(=O)N/N=C/c3cccnc3)sc2n1	i	-0.08
89	COc1ccc(CN(CC2CCC(C(=O)O)CC2)C(=S)Nc2ccccc2C)cc1 (stereo not given)	i	0.04
90	Cn1ccnc1COc1ccc(/C=N/O)cc1	i	2

Part of the list above in order of formula weight, descending.
cpd	Compound	KCNQ2 block	KCNQ2 block baseline
87	CCO[C@@H]1OC(C(=O)N2CCOCC2)=C[C@H](c2ccc(C(F)(F)F)cc2)[C@H]1CCCO	i	-0.19
86	COc1cc2c(cc1OC)n(CC(=O)NC1CCCCCC1)n1c(C)cc(=O)nc21	i	1.4
90	Cn1ccnc1COc1ccc(/C=N/O)cc1	i	2

Remaining list, next part.
cpd	Compound	KCNQ2 block	KCNQ2 block baseline
91	COc1cc(/C=C2\SC(=O)N(c3ccccc3Cl)C2=O)cc([N+](=O)[O-])c1O	i	1.5
92	COc1cccc(CC(=O)N2CCCC(CCC(=O)N3CCN(c4ccccn4)CC3)C2)c1 (stereo not given)	i	1.6
93	COc1ccc(S(=O)(=O)N2CCCC2)cc1NC(=O)c1ccccc1	i	-0.03
94	CCOc1ccc(CN2CCNC(=O)C2CC(=O)NCc2cc(C)n(C)n2)cc1 (stereo not given)	i	0.48
95	COc1ccc(C(c2c(NC(C)=O)sc3c2CCCC3)N2CCN(CCO)CC2)cc1OC (stereo not given)	i	-1.1
96	O=C(NCC(=O)N(c1ccc(Cl)cc1)C(C(=O)NC1CCCC1)c1cccnc1)c1ccco1 (stereo not given)	i	0.4
97	COc1cccc(CN2CCN(Cc3cccc4nonc34)CC2CCO)c1 (stereo not given)	i	0.68
98	COc1cc(/C=N/Nc2ccccc2)ccc1O	i	-0.77
99	COCCNC(=S)N1CCC(Cc2ccccc2)CC1	i	-1.1
100	COc1ccc(Nc2nc(NCC3CCCO3)c3ccccc3n2)c(OC)c1 (stereo not given)	i	-1.4
101	COc1ccc(Nc2nc(Nc3ccc(OC)cc3OC)nc(N3CCN(C)CC3)n2)c(OC)c1	i	-3.7
102	O=C1NC(=O)/C(=C/c2cccc([N+](=O)[O-])c2)N1	i	-1.1
103	COc1ccccc1N1CCN(CC(O)COc2ccc(C)cc2C)CC1 (stereo not given)	i	2.5
104	CCCCCCOc1ccc(N2C(=O)CC(NCc3ccc(S(N)(=O)=O)cc3)C2=O)cc1 (stereo not given)	i	1.3
105	COc1ccc(C(=O)CC(=O)C(=O)Nc2ccccc2OC)cc1	i	0.05
106	Cc1cccc(NCc2cc(Cl)cc(Cl)c2O)n1	i	-0.18
107	CN(C)c1ccc(NC(=O)c2sc(SCC(=O)Nc3ccc(Br)cc3)nc2N)cc1	i	0.81
108	Cc1ccc(-c2cc(C(=O)N3CCN(c4ccccc4O)CC3)c3ccccc3n2)o1	i	-1.3
109	CSc1ccc(S(=O)(=O)Nc2ccc(S(=O)(=O)Nc3ccc(C)cc3)cc2)cc1	i	-0.17
110	NC(=O)CSc1nnc(CNc2ccc(F)cc2)n1CC1CCCO1 (stereo not given)	i	2.7
111	NC(=O)c1nnsc1-c1ccc(-c2snnc2C(N)=O)cc1	i	-0.04
112	O=C(CCCN1C(=O)c2ccccc2C1=O)NCCc1ccc(OC(F)F)cc1	i	0.05
113	O=C(CSc1nc(CCC2CCCC2)nc2ccccc12)NCc1ccc2c(c1)OCO2	i	-0.99
114	Cn1c(SCc2ccccn2)nnc1-c1ccccc1	i	-2.3
115	N#CC1=C(S)N(c2ccccc2)C(c2cccs2)NC1=O (stereo not given)	i	-0.27
116	COc1ccc(NC(=S)NCCc2c[nH]c3ccccc23)c(OC)c1	i	-0.33
117	O=C(CNS(=O)(=O)c1ccc(Br)cc1)Nc1ccc2c(c1)OCCO2	i	1.2
118	COc1cc(OCc2ccccc2)c(C(=O)/C=C/c2ccc3c(c2)OCO3)c(OC)c1OC	i	-3
119	O=C(O)c1cc(Cl)c(Cl)cc1C(=O)N(Cc1ccccc1)Cc1ccccc1	-7.5*	-1.1*
120	CCOC(=O)c1sc2nc3c(SCCC#N)cc(C(=O)c4cc(F)ccc4O)cn3c(=O)c2c1C	i	0.49

This is a subset; the hit share may differ from the screen's.
